RN4220 kill = growth inhibition of S. aureus RN4220, primary screen, OD600 | 16 h | inhibition, % (test concentration not listed) | 330,000 compounds, 0.33% hits | AID 1259311, 2017;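 active means z-score of -3 or lower and OD600 up to 0.18 on both plates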;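 further: plate controls were untreated cells for no effect and reference antibiotic for full effect; stock transfer was 100 nL into about 80 µL; one replicate is shown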
BJeLR viability = MLPCN primary cell-based screen for lethality selective to Ras in HRASV12 cells; AID 1554, 2009; 300,000 compounds, 0.17% hits; inhibition, % (no concentration beside the values); BJeLR (HRASV12) viability, CellTiter-Glo ATP luminescence, 48 h; reference of the scale not given here;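 active means replicate mean above 50%; inconclusive means above 50% but judged a plate artefact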;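 further: 50 nL library stock added to about 25 µL; numbers are from one replicate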
Mtb hypoxia rep = PubChem AID 1159583 | M. tuberculosis hypoxia-regulated fluorescent reporter, fluorescence | 300,000 compounds, 0.1% hits | fluorescence inhibition, % (test concentration not listed);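 active means 35 to 45% if threefold the growth effect, above 45% if 1.5-fold the growth effect; inactive means the rest, general growth blockers included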;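 further: wells of about 50 µL received 100 nL stock; 0% = vehicle wells and 100% = reference inhibitor wells; whole bacteria with a GFP reporter of the hypoxia response; strong numbers were not always called active; many hits fall short of the cut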
Bead autofluor = counter-screen for toxin protease inhibitors: compound fluorescence; compound autofluorescence counterscreen, microsphere flow cytometry; stronger effect = higher value; fluorescence intensity (concentration not given with the values); 360,000 compounds, 3.1% hits;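 active means at least 3 SD above the mean of all compounds, about 16000 in these data; inconclusive means too few beads counted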;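 further: 100 nL of 1 mM stock went into each well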
ugtP null kill = growth inhibition of ugtP-null S. aureus, primary screen, RN4220 ugtP deletion, OD600 | 16 h; some inactives read as strong as hits | growth inhibition, % (test concentration not listed) | 330,000 compounds, 0.54% hits;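 active means z-score under -3 and OD600 up to 0.15 on both plates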;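 further: plate controls were untreated wells for no effect and antibiotic for full effect; wells of about 80 µL received 100 nL stock; the first replicate is given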
PrP UTR inh = inhibition of PrP 5' UTR reporter expression; 340,000 compounds, 0.35% hits; inhibition, % (concentration not given with the values); cell-based PrP 5' UTR mRNA reporter, plate reader;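 active means every replicate at 50% or more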;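 further: 0 = median of the neutral control wells; tested in H4 reporter cells; numbers are from one replicate; inactives centre near -14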
Mtb hypoxia rep growth = further read-out of Mtb hypoxia rep, marked with its call; growth inhibition, %; measured here: M. tuberculosis growth (absorbance);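 0% = vehicle and 100% = reference antibiotic; read after six days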
* hit, by the source's call; ? = inconclusive; nt = not tested or not shown.

SMILES	RN4220 kill	BJeLR viability	Mtb hypoxia rep	Mtb hypoxia rep growth	Bead autofluor	ugtP null kill	PrP UTR inh
O=C(c1ccc(-n2cncn2)c([N+](=O)[O-])c1)N1CCN(S(=O)(=O)c2cccc(F)c2)CC1	nt	10	nt	nt	6502	nt	20
CN(C)N=Nc1ccc(S(=O)(=O)N=C(O)c2ccccc2)cc1	1.6	nt	-2	7	nt	-1	nt
CCOC(=O)c1sc(NC(=O)CCN2C(=O)C3CCCCC3C2=O)cc1C (stereo unspecified)	2.1	nt	10	14	nt	2	-15
COc1ccc(OC)c(/C=C/C(=O)N2C(=O)c3cccc(N)c3C2=O)c1	3.2	-1	12	12	2511	4	-21
Cc1ccc(OCC2Cn3c(nc4c3c(=O)[nH]c(=O)n4C)O2)cc1 (stereo unspecified)	2.4	10	9	15	20012*	2	-7
O=C(Nc1ccc(N2CCCCC2)cc1)c1cccnc1	7.0	0	10	5	3697	2	-52
O=C(COC(=O)C1=COCCO1)Nc1ccc(Br)cc1Br	3.4	nt	0	0	6339	4	-25
COC(=O)c1cc(NC(=O)c2nccnc2C(=O)O)cc(C(=O)OC)c1	1.4	-7	3	3	4187	12	60*
Nc1nc(-c2cccnc2)nn1S(=O)(=O)c1ccccc1	5.1	-1	6	19	6626	4	3
COc1ccc2c(c1)-c1nc(N=Cc3ccc(O)cc3)sc1CC2	4.4	nt	-7	5	nt	0	nt
O=C(NCc1cccs1)C(=O)NCC(c1ccco1)N1CCN(c2ccccc2F)CC1 (stereo unspecified)	-1.3	24	4	5	6011	14	-18
CCOC(=O)Cn1nc(C)c(NC(=O)CCc2ccc(OC)cc2)c1C	2.7	-2	3	-2	2985	0	-30
O=C(O)CC/C(=N/NC(=O)c1cccs1)c1ccccc1	nt	-17	nt	nt	2070	nt	-7
O=C(c1cccn2c(=O)c3ccccc3nc12)N1CCN(Cc2ccc3c(c2)OCO3)CC1	2.4	-1	11	12	20636*	-3	-13
CC1(C)CC(=O)C(C2c3ccccc3S(=O)(=O)c3ccccc32)C(=O)C1	3.2	-4	2	3	3866	12	-8
CC(=O)Nc1ccc(OCC(O)Cn2c(CO)nc3ccccc32)cc1 (stereo unspecified)	0.1	4	2	7	4595	4	-1
COc1ccc(C(=O)NCCc2cn3ccc(C)cc3n2)cc1	-7.7	-8	6	9	6501	-4	-19
O=C1CCN(Cc2ccc(Br)cc2)CCN1[C@H](CO)Cc1ccccc1	nt	1	nt	nt	3777	nt	-11
COc1ccc(-c2cc(=O)oc3c(C)c(OCC(=O)N(C)C)ccc23)cc1	0.9	-3	1	1	4144	2	-13
CCNC(=O)NC(=O)C(C)On1nnc2ccc(S(=O)(=O)N(CC)CC)cc21 (stereo unspecified)	5.3	6	nt	nt	2479	-1	-16

Continued, overlapping the part above by five compounds.
SMILES	RN4220 kill	BJeLR viability	Mtb hypoxia rep	Mtb hypoxia rep growth	Bead autofluor	ugtP null kill	PrP UTR inh
CC(=O)Nc1ccc(OCC(O)Cn2c(CO)nc3ccccc32)cc1 (stereo unspecified)	0.1	4	2	7	4595	4	-1
COc1ccc(C(=O)NCCc2cn3ccc(C)cc3n2)cc1	-7.7	-8	6	9	6501	-4	-19
O=C1CCN(Cc2ccc(Br)cc2)CCN1[C@H](CO)Cc1ccccc1	nt	1	nt	nt	3777	nt	-11
COc1ccc(-c2cc(=O)oc3c(C)c(OCC(=O)N(C)C)ccc23)cc1	0.9	-3	1	1	4144	2	-13
CCNC(=O)NC(=O)C(C)On1nnc2ccc(S(=O)(=O)N(CC)CC)cc21 (stereo unspecified)	5.3	6	nt	nt	2479	-1	-16
COC(=O)C[C@H]1c2cc(F)ccc2S(=O)(=O)N1C(C)C	nt	13	nt	nt	3511	nt	-24
CC(=NNc1ncc(Br)cn1)c1cccc([N+](=O)[O-])c1	7.6	nt	-3	5	nt	-2	nt
Cc1ccc(-c2nc(NC(=O)CSc3ncn[nH]3)ns2)cc1	3.5	4	12	9	5984	-3	-9
COc1cccc(NS(=O)(=O)c2cc3c4c(c2)CCC(=O)N4CCC3)c1	4.3	-1	1	3	6229	0	-23
COc1ccc(NS(=O)(=O)c2cccc(C(=O)NCC(c3ccc(F)cc3)N3CCOCC3)c2)cc1 (stereo unspecified)	-2.7	-6	4	7	5602	4	-8
COc1ccccc1CNC(=O)CN1C(=O)COc2ccc(S(=O)(=O)N3CCCCC3)cc21	2.1	-2	6	5	5431	4	-12
CC(=O)Nc1ccc(OCC(O)Cn2nc(C)nc2C)cc1 (stereo unspecified)	0.0	-3	9	-3	5755	6	-16
COc1ccc(C(=O)NC(=S)N2CCN(c3ccccc3O)CC2)cc1	2.1	nt	-10	10	8598	-7	-8
C(=NNc1nc(Nc2ccccc2)nc(Nc2ccccc2)n1)c1ccncc1	2.0	nt	-5	-1	nt	-9	nt
CCn1c(C)nc2cc(C(=O)N/N=C/c3ccc(OC)c(O)c3)ccc21	nt	7	nt	nt	2202	nt	1
Cc1cc(C)c2oc(C(=O)NCCc3ccc(S(N)(=O)=O)cc3)cc(=O)c2c1	3.5	4	2	-2	4930	11	2
O=C(NN=Cc1ccc(OC(=O)c2ccco2)cc1)c1ccc[n+]([O-])c1	4.3	nt	6	-7	nt	23	nt
COc1cc(-c2ccc3oc(-c4ccsc4)cc3c2)cc(OC)c1OC	7.9	-4	10	1	3608	9	-20
O=C(Cn1cnc2c(NCc3ccccc3)ncnc21)NCc1nc2ccccc2[nH]1	1.3	nt	-12	3	3947	1	-13
COc1cccc(C2=NOC(C(=O)Nc3cccnc3Cl)C2)c1OC (stereo unspecified)	8.5	4	12	-6	2430	5	-20
Cc1cc(Nc2cccc([N+](=O)[O-])c2)c2ccccc2n1	0.4	4	-9	17	2883	-7	-3
COc1ccc(C=NNC(=O)c2ccc([N+](=O)[O-])c(C)c2)cc1COc1ccccc1C(N)=O	2.0	nt	-4	-3	nt	-2	nt
Cc1ccc(OCCn2cccc2/C=C2/C(=O)NC(=O)N(Cc3ccco3)C2=O)cc1	1.7	-1	2	9	5211	3	-24
Cc1cn(S(=O)(=O)c2cc(Br)ccc2Br)cn1	3.7	-4	5	2	11040	4	-16
CCOC(=O)c1nn(-c2ccc(C)c(Cl)c2)c(=O)c(C#N)c1C	7.1	5	-8	11	4043	-2	-9
COc1nc(-c2ccc(Cl)cc2)ccc1-c1noc(-c2ccco2)n1	24	-7	15	16	4312	-15	-34
CCOc1ccccc1-n1c(SCC(=O)N2CCCC2)nnc1-c1ccc(O)cc1	4.4	-5	2	8	10502	1	-38
CC1CCCN(S(=O)(=O)c2ccc(C(=O)Nc3nnc(-c4ccco4)o3)cc2)C1 (stereo unspecified)	48	13	-2	4	5791	30	-6
CCCN(CC1CC1)C(=O)COC(=O)c1ccc(C)cc1O	-3.2	nt	2	4	2931	-4	-4
Cc1ccc2[nH]c3c(c2c1)CN(C(=O)CN1CCN(Cc2ccc4c(c2)OCO4)CC1)CC3	0.5	11	nt	nt	5355	-6	-9
CC(C)(C)NC(=O)COc1ccc(CNCc2cccnc2)cc1	nt	-1	nt	nt	4477	nt	-9
N#CCSc1nc2cc(C(=O)N3CCC(C(N)=O)CC3)ccc2c2nc3ccccc3n12	-3.7	11	-7	-7	20618*	-4	8
COc1cc2[nH]c(=O)n(Cc3ccc(C(=O)NC4CCCC4)cc3)c(=O)c2cc1OC	-1.5	2	4	2	3343	-4	-13
NC(=O)C(c1cccc(Cl)c1)c1ncc(C(F)(F)F)cc1Cl (stereo unspecified)	4.1	1	-1	-2	4257	11	2
O=C(Cc1ccccc1)Nc1ccc(NC(=O)c2cccc(Cl)c2)cc1	5.3	0	14	9	2078	-2	-19
CCOc1ccccc1N1CCN(C(=O)CC(C)(C)C)CC1	11	3	13	4	3285	6	-9
COc1ccc(-c2oc(=O)c3cc(OC)c(OC)cc3c2-c2cc(F)cc(OC)c2)cc1	1.9	nt	1	19	3871	6	-16
CC(C)[C@H](NC(=O)c1ccccc1)C(=O)OCC(=O)NCc1ccc(F)cc1	2.5	-15	15	0	4439	10	-16
O=C(NC1=NCCS1)c1ccc(Cl)s1	1.5	-4	1	-1	7864	0	-52
CNc1nc(SC)nc(N(C#N)CC(=O)OC)n1	5.3	-4	nt	nt	3227	-1	-5
COc1ccc(C=NNC(=O)c2ccc(CSc3nncn3C)cc2)cc1OC	9.6	nt	2	8	nt	2	nt
C=C(C)C1CC=C(CN2CC(C)OC(C)C2)CC1 (stereo unspecified)	nt	-3	nt	nt	2813	nt	-25
COc1ccc(-c2noc(CSc3nnc(-c4ccncc4)n3-c3ccc(F)cc3)n2)cc1OC	4.0	nt	0	-4	8170	2	-48
Cc1cc(C)n(-c2cc(-c3ccccc3)nc(C)n2)n1	-1.1	-1	nt	nt	2710	1	-13
Nn1c(SCC(=O)Nc2nccs2)nncc1=O	8.1	-1	11	2	3029	4	-11
N#Cc1ccc(Cl)cc1NC(=O)CSc1cccc[n+]1[O-]	3.2	nt	-2	16	?	2	-2
COc1cc(-c2nnc3n(CCc4ccccc4)c(=O)c4ccccc4n23)cc(OC)c1OC	1.0	-26	7	4	2472	-7	-7
CCN(CC)S(=O)(=O)c1cc(NC(=O)CCn2[nH]c(=O)ccc2=O)ccc1C	0.6	nt	-6	-6	6378	-1	-1
CCN(CC(=O)Nc1ccc(NC(C)=O)cc1)C(=O)COc1ccc(C(=O)c2ccccc2)cc1	-0.2	0	-1	2	2341	12	-11
O=C(Nc1ccccc1)c1cnc2n(c1=O)CCS2	0.5	3	-1	4	4382	-4	56*
CCOC(=O)C1C2COc3cc(OC)ccc3C2N2C(=O)c3cc(F)c(F)cc3NC(=O)[C@@]12C (stereo partly specified)	5.6	nt	17	8	nt	3	nt
COc1ccc(Br)cc1CN(C)C(=O)C1=CC=CN2CCS(=O)(=O)N=C12	0.6	nt	5	8	3054	9	-20
COc1cccc(NC(=O)Cn2nnc(C(=O)Nc3cc(Cl)ccc3OC)c2N)c1	5.9	3	-2	1	5375	0	-18
CCOc1ccc(C2CC=C(C(=O)O)C(c3cccc(Cl)c3)N2S(=O)(=O)c2ccc(C)cc2)cc1 (stereo unspecified)	14	nt	10	13	nt	26	nt
COc1ccccc1NC(=O)/C(C#N)=C/c1ccncc1	1.8	-3	9	-2	5464	-1	-29

Next entries
SMILES	RN4220 kill	BJeLR viability	Mtb hypoxia rep	Mtb hypoxia rep growth	Bead autofluor	ugtP null kill	PrP UTR inh
COc1ccc(S(=O)(=O)Nc2ccccc2C(=O)NC(C)(C)C)cc1OC	3.0	-2	6	13	9851	6	-49
C=C(C(=O)c1ccccc1)C(C)C(=C)C(=O)c1ccccc1	3.9	1	-2	-1	2016	10	-26
O=C(CSc1ncnc2ccccc12)Nc1cc(S(=O)(=O)N2CCCCC2)ccc1Cl	5.0	13	5	5	9848	-25	-21
CCOc1c(CNCCNC(=O)c2nonc2N)cccc1OC	3.5	3	9	7	11040	2	-10
Cc1ccc(S(=O)(=O)CCC(=O)c2ccc(O)cc2O)cc1	29	-27	2	0	9364	9	-12
COc1ccc(S(=O)(=O)Cc2ccc(C(=O)N3CCC(C(N)=O)CC3)o2)cc1	-0.9	-1	nt	nt	5487	0	0
COC(=O)c1cc(OC)c(OC)cc1NC(=O)c1ccco1	-7.5	0	14	16	3074	-4	-13
COc1ccc(S(=O)(=O)N(C)c2ccccc2)c2cccnc12	3.2	7	5	8	6005	-5	-3
CC(C)(C)N(Cc1ccccc1)C(=O)COC(=O)C1CCCCC1	4.8	nt	8	7	4022	8	-11
CC(C)n1cc(C=NNc2ccc(C(=O)O)cc2)c2ccccc21	2.7	nt	9	-4	nt	-7	nt
CCOc1ccc2nc(SCC(=O)NCC3CCCO3)sc2c1 (stereo unspecified)	-2.5	nt	-9	4	3928	2	-28
CCOc1ccc(/C(O)=C2/C(=O)C(=O)N(c3ccccn3)C2c2ccc(Cl)cc2)c(C)c1 (stereo unspecified)	3.9	-2	-7	-3	3282	18	-15
CCn1cc(C(=O)OCC(=O)Nc2cc(S(=O)(=O)N(C)C)ccc2C)c(=O)c2ccc(C)nc21	2.7	-13	1	4	9716	6	-19
CCCOc1cccc(C2C(C(=O)c3cccs3)=C(O)C(=O)N2Cc2cccnc2)c1 (stereo unspecified)	3.3	7	11	3	2980	3	-9
